ALR inh – inhibitors of human sulfhydryl oxidase ALR. inhibition, % (concentration not given with the values). 290,000 tested, 3.8% active. purified ALR, DTT oxidation, H2O2 HRP-luminol luminescence;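 active = mean and each replicate at 75% or more; inconclusive = only one of the two met; inactive = neither met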;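 also: stock transfer was 7.5 nL into about 7.5 µL; 0% = neutral wells and 100% = wells with inactivated enzyme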
HNF4A DNA FP – change in binding of human HNF4 alpha to DNA; P41235; HNF4a-FITC DNA binding, fluorescence polarization, 1 h; activity change, % at 10 µM; 360,000 tested, 0.3% active; in the data active = activity change above about 30%, passing the limit was not always enough;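 also: controls were the assay level and a saturating level of protein; the project sought stronger binding though the title names inhibitors; some compounds called inactive have numbers as strong as hits; positive values seem to mean higher polarization but the record does not say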
FGF22 binding – shifts melting point of recombinant human FGF22; Q9HCT0; recombinant FGF22 thermal shift, SYPRO orange fluorescence; percent of sucrose octasulfate shift, DMSO zero; calls only at 9.99 µM; 340,000 tested, 1.5% active; AID 651658;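 active = melting point raised past a set limit in the mean and every replicate; inconclusive = no clear call; three in four hits are not shown here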
B2AR ag – activates human beta-2 adrenergic receptor causing internalization | P07550 | Am2.2-beta2AR cells, FAP receptor internalization, flow cytometry; reference of the scale not given here | response, % (concentration not given with the values) | 340,000 tested, 0.43% active;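 active = response above a set limit, near 3 SD of response in nonfluorescent compounds, cut at about 42% in these data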;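 also: stock transfer was 100 nL into about 11 µL; a reference agonist was the positive control; negative values mostly stem from fluorescent compounds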
UCH37 DUB inh – blocks the human deubiquitinase UCH37; Q9Y5K5; purified proteasome/UCH37, Ub-AMC cleavage fluorescence; inhibition, % (test concentration not listed); 330,000 tested, 0.33% active;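 active = mean of two replicates above 20%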;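 also: 0% = compound-free wells with enzyme and 100% = wells lacking proteasome; stock transfer was 100 nL into about 20 µL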
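Signal – fluorescence, ex 355 nm, em 460 nm · System – Proteasome-bound UCH37 · Input – 0.15 nM proteasome as dispensed · Timing – 30 min preincubation with enzyme, 25 min cleavage at room temperature · Read-out basis – percent inhibition of cleavage signal versus uninhibited and no-proteasome wells · Medium – Tris-HCl pH 7.4 with ATP-MgCl2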
LANA-H2A inh – blocks KSHV LANA binding to histone H2A/H2B. Q9QR71. cell-free LANA-H2A/H2B peptide, fluorescence polarization. inhibition, % (concentration not given with the values). 320,000 tested, 0.6% active. AID 2629; in the data active = inhibition mostly above about 10%, no sharp cut-off; inactive = mostly below about 6.7%;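 also: stock transfer was 7.5 nL into about 10 µL; 0% = median of vehicle wells and 100% = median of positive control wells; one replicate is shown; the record names a cut of 25% in any replicate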
Target sequence (Q9QR71 whole entry, looked up): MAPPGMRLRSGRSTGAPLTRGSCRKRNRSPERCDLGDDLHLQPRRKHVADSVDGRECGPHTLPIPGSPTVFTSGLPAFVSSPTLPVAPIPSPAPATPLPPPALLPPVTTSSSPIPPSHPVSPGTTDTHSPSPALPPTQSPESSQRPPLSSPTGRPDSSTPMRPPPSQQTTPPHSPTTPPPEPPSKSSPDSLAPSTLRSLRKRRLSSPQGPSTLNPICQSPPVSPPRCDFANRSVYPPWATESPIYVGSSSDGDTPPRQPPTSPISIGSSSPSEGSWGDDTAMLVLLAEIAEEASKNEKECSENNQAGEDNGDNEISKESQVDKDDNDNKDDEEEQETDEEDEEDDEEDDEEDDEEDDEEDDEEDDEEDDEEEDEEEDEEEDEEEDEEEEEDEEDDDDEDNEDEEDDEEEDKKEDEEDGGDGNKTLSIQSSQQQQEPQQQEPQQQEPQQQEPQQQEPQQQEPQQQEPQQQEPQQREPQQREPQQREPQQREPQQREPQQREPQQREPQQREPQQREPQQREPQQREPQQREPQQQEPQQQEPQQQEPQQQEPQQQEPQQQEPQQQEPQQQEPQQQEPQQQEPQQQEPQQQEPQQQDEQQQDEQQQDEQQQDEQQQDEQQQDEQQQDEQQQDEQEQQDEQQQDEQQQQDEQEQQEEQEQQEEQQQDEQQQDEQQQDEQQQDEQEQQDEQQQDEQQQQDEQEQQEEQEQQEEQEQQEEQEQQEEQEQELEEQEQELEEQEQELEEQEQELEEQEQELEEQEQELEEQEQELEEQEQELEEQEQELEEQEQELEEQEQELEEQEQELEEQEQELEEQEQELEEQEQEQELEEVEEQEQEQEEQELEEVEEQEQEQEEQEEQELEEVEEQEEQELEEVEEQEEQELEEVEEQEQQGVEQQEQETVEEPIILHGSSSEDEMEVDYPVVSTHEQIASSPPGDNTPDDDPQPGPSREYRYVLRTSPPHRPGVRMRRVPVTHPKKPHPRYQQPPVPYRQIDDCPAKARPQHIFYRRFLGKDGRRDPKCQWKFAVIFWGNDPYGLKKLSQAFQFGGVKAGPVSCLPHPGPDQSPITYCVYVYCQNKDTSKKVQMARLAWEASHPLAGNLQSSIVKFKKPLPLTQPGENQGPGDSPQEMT
Ecoli growth – inhibitors of Escherichia coli growth; 330,000 tested, 0.21% active; OD600 absorbance (concentration not given with the values); AID 1053175; OD600, 23 h; active compounds read low;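 active = OD600 absorbance below the run mean of sample wells minus 3.6 SD, in any replicate, cut at about 0.56 in these data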;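 also: stock transfer was 300 nL into about 60 µL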
Starred values were filed as active, the others as inactive; i = inactive; ? = inconclusive; nt = no result given. Not all compounds are listed; the hit share may differ from the screen's.

SMILES	ALR inh	HNF4A DNA FP	FGF22 binding	B2AR ag	UCH37 DUB inh	LANA-H2A inh	Ecoli growth
O=C(NCc1ccc(Cl)s1)C1CCC(=O)N(CCc2cccc(F)c2)C1 (stereo unspecified)	0	-4.0	i	11	-0.2	0.7	0.66
O=C(NCCc1ccco1)C(=O)NCCC1CCCCN1S(=O)(=O)c1ccccc1 (stereo unspecified)	0	-3.2	i	-11	2.2	-0.1	0.7
Cc1cccc(NC(=O)CNC(=O)CSc2nc(N)cc(N)n2)c1C	nt	-1.6	i	-5	-0.4	nt	0.67
CCCSc1ncccc1C(=O)O	-21	0.6	i	4	-0.6	1.2	0.62
Cc1ccc(CN2CC(C(=O)Nc3ccccc3N3CCCC3)CC2=O)cc1 (stereo unspecified)	?	-0.8	i	1	4.0	6.6	0.69
CC(C)c1ccc(NC(=O)CN2C(=O)NC(C)(C3CC3)C2=O)cc1 (stereo unspecified)	-5	-1.8	i	12	0.2	-0.3	0.61
O=C(CN(c1ccc(F)cc1)S(=O)(=O)c1ccccc1)N1CCOCC1	-9	0.3	i	1	-0.5	-3.9	0.68
CCC(=O)Nc1cc(C)c(OC)c(C)c1	-5	-0.6	i	0	5.7	0.6	0.72
O=C(Cn1c2c(sc1=O)C1c3ccccc3OCC1CS2)Nc1ccc(Cl)c(Cl)c1 (stereo unspecified)	nt	1.5	i	-2	1.1	6.1	0.7
Cc1cc(N2CCOCC2)nc(C(C)C)n1	-4	1.5	i	-2	3.4	1.0	0.68
O=C(CSc1nnc(-c2cccs2)n1-c1ccccc1)Nc1ccccc1	-4	-3.4	nt	-6	3.5	-0.8	0.67
COc1cc(CC(=O)Nc2cc(S(C)(=O)=O)ccc2Cl)cc(OC)c1OC	-19	4.6	i	-2	4.2	-5.3	0.73
COc1cccc(NC(=O)[C@H](CC(C)C)NC(=O)N2CCn3c2nc2ccccc23)c1	-12	-3.1	i	-10	-0.1	4.6	0.71
COc1ccc(NS(=O)(=O)c2ccc(N3CCOCC3)c(N)c2)cc1	6	4.4	i	-1	-2.4	-2.2	0.67
COc1cc(OC)cc(C(=O)NC2CC(C)(C)NC(C)(C)C2)c1	-5	1.6	i	-4	0.2	-1.4	0.65
CC1CC(C)CN(C(=O)CSc2nnc3ccccn23)C1 (stereo unspecified)	18	-2.0	i	-5	0.7	-0.2	0.63
CCOC(=O)CCSc1nc(C)c2cc(C)c(C)cc2n1	4	-0.6	nt	-4	-0.9	3.1	0.7
CN(CC(=O)Nc1ccc(Cl)c(C(F)(F)F)c1)C(=O)C1CCC1	nt	3.5	i	3	4.5	-4.2	0.67
CCCCOC(=O)C(C#N)c1nc2ccccc2nc1N1CCN(Cc2ccc3c(c2)OCO3)CC1 (stereo unspecified)	-17	1.9	nt	0	2.3	-3.1	0.75
O=C(O)c1ccccc1SCc1cn2cc(Br)ccc2n1	8	1.5	i	15	2.0	2.7	0.7
CCOc1cc(/C=N/NS(=O)(=O)c2ccccc2)ccc1OS(=O)(=O)c1ccc(C)cc1	nt	1.5	nt	5	nt	2.4	nt
Cc1ccc(-c2c3c(nc4sc(C(N)=O)c(N)c24)CCCC3)o1	nt	0.5	i	-6	4.0	6.1	0.63
CCCCNS(=O)(=O)c1ccc(NC(=O)C(Sc2ccccc2)c2ccccc2)cc1 (stereo unspecified)	-18	-2.5	nt	20	3.2	0.6	0.72
COc1ccc(C(=O)COC(=O)c2cccs2)cc1	1	-1.0	i	-4	1.7	-2.3	0.67
Cc1ccc(Nc2c(-c3cccnc3)nc3ccc(Br)cn23)cc1	1	7.2	i	11	-2.3	-1.8	0.73
CC1Oc2ccccc2N(CC(=O)c2ccccc2)C1=O (stereo unspecified)	0	3.9	i	2	1.0	-3.5	0.7
c1cnc(-c2noc(CN3CCN(C4C5CC6CC(C5)CC4C6)CC3)n2)cn1 (stereo unspecified)	2	1.6	i	1	4.4	1.9	0.7
COc1ccc(N2CCN(CC(=O)Nc3c(C)cc(C)cc3C)CC2)cc1	75	-1.8	nt	6	4.1	0.6	0.72
COc1c(C)cc(Br)cc1C(=O)Nc1ccc(S(N)(=O)=O)cc1	-4	-0.2	i	-1	1.8	1.5	0.72
CCCn1nnc2ccccc2c1=O	-19	0.0	nt	-2	-4.8	-2.8	0.65
COc1cc(C(=S)N2CCOCC2)ccc1OC(=O)c1ccc(Br)cc1	-11	-2.6	i	3	0.2	-2.5	0.68
Cc1[nH]nc2c1C1(CCOCC1)C(C#N)=C(N)O2	40	0.8	i	-3	-0.3	-3.0	0.7
CCCC(CNC(=O)COC(=O)C1=NNC(=O)CC1)c1ccc(Cl)cc1Cl (stereo unspecified)	0	-1.3	i	-4	-2.3	2.6	0.73
COC(=O)CC1COc2ccccc2N1C(=O)c1cccc(Cl)c1 (stereo unspecified)	-2	-1.3	nt	0	1.7	1.4	0.65
Cc1nc(NC(=O)/C=C/c2ccc(F)cc2)sc1C(=O)N(C)C	-4	0.2	nt	0	7.7	-0.6	0.67
COc1ccccc1CNC(=O)CNC(=O)N1CC(=O)Nc2ccccc21	0	2.0	i	3	7.0	1.1	0.68
CCOC(=O)C1=C(CCc2ccccc2)NC(=O)NC1c1ccc(Br)cc1 (stereo unspecified)	nt	-1.1	i	-8	3.4	-4.3	0.64
C[n+]1cccc(C(=O)NCC2CCCO2)c1 (stereo unspecified)	0	-3.1	i	1	4.6	-2.6	0.69
Cn1c(=O)c2[nH]c(NN=Cc3ccc(Br)cc3)nc2n(C)c1=O	nt	3.7	i	0	-10	nt	0.7
O=C(Nc1cccc2c1CCCC2)c1ccc(Cl)c([N+](=O)[O-])c1	1	-5.2	nt	-8	2.5	1.1	0.71

Quoted from the listing.
`Cc1nc(NC(=O)/C=C/c2ccc(F)cc2)sc1C(=O)N(C)C` in LANA-H2A inh shows -0.6
`Cn1c(=O)c2[nH]c(NN=Cc3ccc(Br)cc3)nc2n(C)c1=O` in B2AR ag shows 0
`O=C(Nc1cccc2c1CCCC2)c1ccc(Cl)c([N+](=O)[O-])c1` in Ecoli growth shows 0.71

The results go on.
SMILES	ALR inh	HNF4A DNA FP	FGF22 binding	B2AR ag	UCH37 DUB inh	LANA-H2A inh	Ecoli growth
CCOC(=O)CSc1nnc(Cc2ccc(OC)cc2)n1-c1ccccc1	6	-4.4	nt	1	3.5	-1.3	0.68
CC(C)C(C(=O)NC1CCCC1)N(CC1CCCO1)C(=O)CNS(=O)(=O)c1ccc(F)cc1 (stereo unspecified)	-1	-2.2	i	-3	-0.3	0.6	0.68
Cc1ccc(S(=O)(=O)N(C)C)cc1NC(=O)COC(=O)COc1ccc2c(C)cc(=O)oc2c1	35	0.1	i	-4	-45	-0.5	0.7
CC1CCCCC1NC(=O)c1cccc(N2C(=O)C3C4C=CC(C4)C3C2=O)c1 (stereo unspecified)	-3	2.0	i	-10	3.3	4.9	0.68
CCOc1cc(N2CCOCC2)c(OCC)cc1NC(=O)COC(=O)CCn1c(C)csc1=O	nt	8.4	nt	-7	0.1	2.3	0.61
O=P(OCC1CC1)(c1ccccc1)c1ccccc1	-3	1.3	i	17	-0.9	3.2	0.68
COc1ccccc1N1CCN(C(=O)c2ccncc2)CC1	33	1.4	nt	4	5.1	-2.9	0.7
Cc1ccccc1S(=O)(=O)/N=C(/c1ccccc1)N(C)C	-10	1.1	i	8	nt	4.9	nt
O=C(c1cccs1)N1N=C(c2ccccc2)CC1c1ccccc1 (stereo unspecified)	-2	0.0	i	-4	0.2	-0.8	0.71
COC(=O)[C@@]1(Cc2ccc(F)cc2)[C@H]2c3cc(C(=O)N(C)C)n(C[C@H](O)CO)c3C[C@H]2CN1C(=O)c1ccccc1	0	0.7	nt	0	1.7	1.7	0.79
CCCCOc1ccccc1NC(=O)Cn1c(-c2nonc2N)nc2ccccc21	-12	1.5	nt	11	2.3	-0.1	0.74
Nc1nc2nonc2nc1N	-20	-5.0	i	-1	1.7	-5.0	0.71
CCc1nnc(NS(=O)(=O)c2ccc(NC(=O)c3ccccc3OC)cc2)s1	1	-2.8	i	7	2.5	-0.9	0.71
COc1ccc(N2CCN(C(=O)c3ccc(N(C)S(=O)(=O)c4ccc(C)cc4)cc3)CC2)cc1	16	4.4	i	-1	3.1	-0.7	0.69
COc1ccccc1OCCCCN1CCN(c2ccccc2OC)CC1	10	3.7	nt	-11	4.9	13	0.72
Brc1ccc(-c2cn3cccnc3n2)cc1	-3	0.1	nt	-1	-321	2.8	0.7
COCCNC(=S)N1C2CCC1CC(NC(=O)NC13CC4CC(CC(C4)C1)C3)C2 (stereo unspecified)	3	-1.7	nt	-1	-1.5	1.3	0.67
COc1cc(NS(=O)(=O)c2ccc(NC(=S)NC(=O)c3ccc(F)c(F)c3)cc2)nc(OC)n1	?	1.2	i	7	1.2	-4.1	0.63
CN1CCN(c2nc(-c3ccccn3)nc3ccccc23)CC1	-2	-5.0	nt	-21	4.4	-0.9	0.72
CCN(CCCNC(=O)c1ccc2c(c1)NC(=O)CN2C)c1cccc(C)c1	94*	4.7	i	20	6.1	-2.9	0.68

Whole records, quoted from the list. Values in the order: ALR inh	HNF4A DNA FP	FGF22 binding	B2AR ag	UCH37 DUB inh	LANA-H2A inh	Ecoli growth
`CCc1nnc(NS(=O)(=O)c2ccc(NC(=O)c3ccccc3OC)cc2)s1` across the screens: 1	-2.8	i	7	2.5	-0.9	0.71
`Cc1nc(NC(=O)/C=C/c2ccc(F)cc2)sc1C(=O)N(C)C` across the screens: -4	0.2	nt	0	7.7	-0.6	0.67
`COc1cc(C(=S)N2CCOCC2)ccc1OC(=O)c1ccc(Br)cc1` across the screens: -11	-2.6	i	3	0.2	-2.5	0.68

New compounds follow
SMILES	ALR inh	HNF4A DNA FP	FGF22 binding	B2AR ag	UCH37 DUB inh	LANA-H2A inh	Ecoli growth
COc1ccc(N=Cc2c[nH][nH]c2=O)cc1	31	0.0	nt	-2	12	6.1	0.68
CC1(C)Oc2ccc(C(=O)NC3CCCC3)cc2N(CC(=O)N2CCOCC2)C1=O	-3	4.1	nt	-2	1.7	-1.8	0.68
Cc1ccc2nsnc2c1NC(=O)COc1ccccc1	nt	2.7	i	-1	0.3	0.7	0.66
Cc1cc(C)cc(C(=O)Oc2coc(CSc3nnc(NC(=O)C4CC4)s3)cc2=O)c1	nt	0.5	nt	-2	nt	-2.0	nt
CCOc1ccccc1Nc1ccc(C(=O)O)cc1NC(C)=O	15	0.0	nt	4	2.8	-6.2	0.79
CCN(CC)C(=O)COc1ccc(/C=C(\C#N)S(=O)(=O)c2ccccc2)cc1OC	-7	-5.0	nt	15	0.5	-2.6	0.66
Cc1cccc(-n2ncc3c(NCCCN4CCCC4=O)ncnc32)c1	nt	-1.5	nt	-3	4.4	-3.8	0.73
COc1cccc(OC)c1OCC(=O)Nc1ccc(S(=O)(=O)N2CCCC2)cc1	1	6.4	i	3	1.7	1.1	0.69
Cc1c(NC(=O)CN2C(=O)NC(C)(c3ccccc3Cl)C2=O)c(=O)n(-c2ccccc2)n1C (stereo unspecified)	1	-1.2	nt	-1	1.2	1.8	0.7
COc1ccc(N2CC(C(=O)NC3CCSC3=O)CC2=O)cc1 (stereo unspecified)	5	0.7	i	1	0.1	-0.6	0.7
CCN(CCNS(=O)(=O)c1ccc2c(c1)oc(=O)n2C)c1ccccc1	nt	-1.0	i	-11	5.1	-4.0	0.76
COc1ccc(N2CC(C(=O)N3CCOCC3)CC2=O)cc1 (stereo unspecified)	-6	-0.9	i	-2	-0.9	-4.9	0.67
CCC(=O)c1ccc(OCC(O)CN2CCN(c3ccccn3)CC2)cc1 (stereo unspecified)	0	-1.2	i	3	0.6	0.0	0.67
COC(C(=O)NC1CCCCCCC1)c1ccccc1 (stereo unspecified)	-1	-2.8	nt	1	0.8	-1.8	0.62
CCOC(=O)c1oc2cccc(O)c2c1CN(Cc1ccccc1)C(C)=O	85*	0.6	nt	-10	-1.4	4.3	0.67
CSCC[C@H](NC(=O)c1cc([N+](=O)[O-])ccc1Cl)c1nc2ccccc2[nH]1	-6	1.5	i	-7	1.1	3.6	0.72
CCCSc1cc(=O)n(-c2ccccc2)nc1C(=O)O	4	-1.0	i	-3	3.1	-4.7	0.66

Screening data: PubChem BioAssay, several laboratories
